Screening data from PubChem BioAssay.
NPYLR7 agonist – agonists of mosquito NPYLR7 receptor, primary screen, cell-based, Aedes aegypti, calcium fluorescence, mosquito biting behavior; activation, % at 10 µM; 0.15% of 270,000 active; Aedes aegypti neuropeptide Y-like receptor 7 (NPYLR7); HEK293T NPYLR7/Galpha15, GCaMP6s calcium fluorescence; in the data active = activation above about 40%;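 note: 0% = vehicle and 100% = reference agonist at the receptor; some compounds past the cut are filed as inactive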
NPYLR7 agonist max-min – further read-out of NPYLR7 agonist, marked with its call; activation, %; measured here: Max-Min RFU normalised activation; some inactives read as strong as hits;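 span of the calcium signal over five minutes; 0% = vehicle and 100% = native peptide agonist; compound fluorescence can raise it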
Starred values were filed as active, the others as inactive.

Start of the listing, in advance:
SMILES	NPYLR7 agonist	NPYLR7 agonist max-min
O=c1nc(SCc2cccc3ccccc23)c2c(n1CCCO)CCCC2	-4	-12
NC(=O)CSc1nc(-c2ccccc2)cc(=O)[nH]1	4	3
COc1ccc(-c2csc(NC(=O)C3Cc4ccccc4C(=O)O3)n2)cc1OC (configuration not stated)	2	0
Cc1cc(C)[n+]2cccc(O)c2n1	-13	-21
CCCCN(C(=S)NC1CCCCC1)c1c(N)n(CCC)c(=O)[nH]c1=O	22	12
COc1ccc(OCc2nn(CN(C)Cc3ccc(F)cc3)c(=S)n2C)cc1	3	8
CCOc1ccc(N2CCN(C(=O)c3ccc(F)cc3)C(C)C2=O)cc1 (configuration not stated)	3	17
CCc1nc2ccc(C(=O)Nc3ccc(NC(C)=O)cc3)cn2c1N(C)CCN1CCOCC1	11	8
CC(C)N1C(=O)c2ccccc2NC1c1cn[nH]c1-c1ccc(F)cc1 (configuration not stated)	2	2
O=c1c2cnc3nc(-c4cccnc4)nn3c2ccn1Cc1ccccn1	1	1
CCCCC(=O)NCCN1CCN(C(=O)OC)CC1	1	0
CCCC(C)NC(=O)C1CCCN(CC(=O)NC2CCSC2=O)C1 (configuration not stated)	3	2
CCCCCN1CCN(c2nc3c(c(=O)[nH]c(=O)n3C)n2Cc2ccc(Cl)cc2Cl)CC1	3	1
O=C(Cc1csc(NC(=O)c2ccc[nH]c2=O)n1)NCc1cccnc1	3	8
O=C(COc1ccccc1)N1CCN(C(=O)c2ccco2)CC1	7	6
Cn1ccnc1SCC(=O)NC(C)(C#N)C1CC1 (configuration not stated)	3	-4
COCc1ccc(C(=O)NCc2ccc3c(c2)n(C)c(=O)n3C)o1	-2	2
COC(=O)c1ccc(N=C2SC(C(=O)Nc3ccc(C(=O)O)cc3)CC(=O)N2C)cc1 (configuration not stated)	2	-1
CCN(CC)c1ccc(CN(Cc2ccco2)C(=O)Nc2ccccc2OC)c(OS(C)(=O)=O)c1	-2	10
CC(=O)OCC1C(=O)CC2CCCC1N2C(=S)Nc1ccccc1 (configuration not stated)	-8	-8
CCn1cc(C(CC(=O)N(CCC#N)Cc2cccnc2)c2cc(OC)cc(OC)c2)c2ccccc21 (configuration not stated)	19	21
O=C(Cc1ccccc1)NC1CCN(c2ccccc2C(=O)NCCN2CCCCC2)CC1	23	22
C=CCNC(=O)CSc1ccc(S(=O)(=O)N2CCCCCC2)cn1	-6	-7
CCS(=O)(=O)c1ccc(O)c(N=Cc2ccc(C)o2)c1	5	5
COc1cc(Br)cc(C)c1N	8	7
O=C(Cn1nc(-c2ccc([N+](=O)[O-])cc2)nc1-c1ccccc1)Nc1ccc(Br)cc1	-10	-14

The whole of this part, previewed entries included:
SMILES	NPYLR7 agonist	NPYLR7 agonist max-min
O=c1nc(SCc2cccc3ccccc23)c2c(n1CCCO)CCCC2	-4	-12
NC(=O)CSc1nc(-c2ccccc2)cc(=O)[nH]1	4	3
COc1ccc(-c2csc(NC(=O)C3Cc4ccccc4C(=O)O3)n2)cc1OC (configuration not stated)	2	0
Cc1cc(C)[n+]2cccc(O)c2n1	-13	-21
CCCCN(C(=S)NC1CCCCC1)c1c(N)n(CCC)c(=O)[nH]c1=O	22	12
COc1ccc(OCc2nn(CN(C)Cc3ccc(F)cc3)c(=S)n2C)cc1	3	8
CCOc1ccc(N2CCN(C(=O)c3ccc(F)cc3)C(C)C2=O)cc1 (configuration not stated)	3	17
CCc1nc2ccc(C(=O)Nc3ccc(NC(C)=O)cc3)cn2c1N(C)CCN1CCOCC1	11	8
CC(C)N1C(=O)c2ccccc2NC1c1cn[nH]c1-c1ccc(F)cc1 (configuration not stated)	2	2
O=c1c2cnc3nc(-c4cccnc4)nn3c2ccn1Cc1ccccn1	1	1
CCCCC(=O)NCCN1CCN(C(=O)OC)CC1	1	0
CCCC(C)NC(=O)C1CCCN(CC(=O)NC2CCSC2=O)C1 (configuration not stated)	3	2
CCCCCN1CCN(c2nc3c(c(=O)[nH]c(=O)n3C)n2Cc2ccc(Cl)cc2Cl)CC1	3	1
O=C(Cc1csc(NC(=O)c2ccc[nH]c2=O)n1)NCc1cccnc1	3	8
O=C(COc1ccccc1)N1CCN(C(=O)c2ccco2)CC1	7	6
Cn1ccnc1SCC(=O)NC(C)(C#N)C1CC1 (configuration not stated)	3	-4
COCc1ccc(C(=O)NCc2ccc3c(c2)n(C)c(=O)n3C)o1	-2	2
COC(=O)c1ccc(N=C2SC(C(=O)Nc3ccc(C(=O)O)cc3)CC(=O)N2C)cc1 (configuration not stated)	2	-1
CCN(CC)c1ccc(CN(Cc2ccco2)C(=O)Nc2ccccc2OC)c(OS(C)(=O)=O)c1	-2	10
CC(=O)OCC1C(=O)CC2CCCC1N2C(=S)Nc1ccccc1 (configuration not stated)	-8	-8
CCn1cc(C(CC(=O)N(CCC#N)Cc2cccnc2)c2cc(OC)cc(OC)c2)c2ccccc21 (configuration not stated)	19	21
O=C(Cc1ccccc1)NC1CCN(c2ccccc2C(=O)NCCN2CCCCC2)CC1	23	22
C=CCNC(=O)CSc1ccc(S(=O)(=O)N2CCCCCC2)cn1	-6	-7
CCS(=O)(=O)c1ccc(O)c(N=Cc2ccc(C)o2)c1	5	5
COc1cc(Br)cc(C)c1N	8	7
O=C(Cn1nc(-c2ccc([N+](=O)[O-])cc2)nc1-c1ccccc1)Nc1ccc(Br)cc1	-10	-14
Clc1cccc(-c2nc3ccc(Br)cn3c2NC2CCCCC2)c1	-6	1
O=C1NC(=S)N/C1=C/c1ccc2c(c1)OCO2	-3	-12
O=c1c(N=Nc2cc(Cl)ccc2Cl)c(-c2ccccc2)[nH]n1-c1nc(-c2ccccc2)cs1	-6	-10
Cc1nn(-c2ccccc2)c2c1P(=O)(N1CCOCC1)C(=C1N(C)c3ccccc3C1(C)C)C=N2 (configuration not stated)	4	5
Cc1cccc(CSc2nc(C)cc(Oc3cccc(Cl)c3)n2)c1	-10	-8
Cc1noc(-c2ccccc2Cl)c1C(=O)NCc1cccs1	5	9
CC(C)(O)C#Cc1ccc(C(=O)NCc2n[nH]c3c2CCCCC3)o1	4	2
CCCc1ccc(C(=O)CSc2nnc(-c3ccc[nH]3)o2)cc1	3	18
C=CCn1c(=O)c2c(nc3n(-c4ccc(C(F)(F)F)cc4)c(C)cn23)n(C)c1=O	-1	1
CNS(=O)(=O)c1cc(Cl)ccc1Cl	-1	-1
OC(CN1CCN(Cc2ccc3c(c2)OCO3)CC1)c1ccccc1 (configuration not stated)	4	2
COc1ccc(C(=O)Cn2c(-c3nnc(C)o3)cc3ccccc32)cc1	-9	-5
Cc1csc(C2CCCCN2C(=O)Cc2csc(N3CCNC3=O)n2)n1 (configuration not stated)	3	10
Cc1ncsc1Cn1nc(C2CCNCC2)n(Cc2ccccc2)c1=O	7	5
O=C(c1cc(-c2ccsc2)n[nH]1)N1CCCC(Nc2ccc3c(c2)OCO3)C1 (configuration not stated)	2	-1
CN(C)CCN(C(=O)CCc1ccccc1)c1nc2ccc(Cl)cc2s1	-6	-8
Cn1c(CSc2nc3ccccc3[nH]2)nc2ccccc21	-9	-12
CN(C)S(=O)(=O)Nc1ccc(Cc2ccncc2)cc1	-3	-5
COCC(NC(=O)c1sc(C)nc1-c1ccccc1)c1ccnn1C (configuration not stated)	3	1
CC(Cn1cncn1)NC(=O)c1coc(COc2ccc(F)cc2)n1 (configuration not stated)	-1	7
Cc1coc2cc3oc(=O)c(CCC(=O)O)c(C)c3cc12	3	2
COCCN(C1CCN(C)CC1)S(=O)(=O)NCc1ccccc1	2	3
COc1cccc(CSc2nnc(C(C)NC(=O)COc3ccccc3)n2-c2ccc([N+](=O)[O-])cc2)c1 (configuration not stated)	-1	10
Cn1ncc(NCCc2nc3ccc(F)cc3n2C)c(Cl)c1=O	3	0

(list continues)
SMILES	NPYLR7 agonist	NPYLR7 agonist max-min
Cc1cccc(Cn2cccc2CN(CCC(C)C)Cc2cc(F)cc(F)c2)c1	-3	-4
COc1ccccc1C(=O)C1CCCN(C(=O)CSc2nc3ccc(C)cc3[nH]2)C1 (configuration not stated)	8	6
CNC(=O)CSc1nnc2n1CCN2c1ccc(C)cc1	0	-1
Oc1c2cccnc2cn1Cc1noc(C2CCCC2)n1	-1	-5
Cc1nn(C)cc1-c1ccnc(NCCSCc2nc[nH]c2C)n1	6	4
Cc1cc(C)cc(-c2cc(NS(=O)(=O)c3cnn(C)c3)n[nH]2)c1	1	0
O=[N+]([O-])c1cc(S(=O)(=O)C(F)(F)F)ccc1Nc1ccc(N2CCOCC2)cc1	8	14
CCCN(C1CCS(=O)(=O)C1)S(=O)(=O)c1ccccc1Cl (configuration not stated)	6	1
Cc1cccc(CSc2ncnc3c2nnn3-c2ccc(F)cc2)c1	11	15
Cc1ccc(Cn2nc(C)c(C(=O)N3CCNC(=O)C3)c2C)cc1	7	3
CC(C)c1cc(C(=O)N(C)C2CCCN(CCCc3ccccc3)C2)on1 (configuration not stated)	3	0
CC(NS(=O)(=O)c1ccc(F)c(F)c1F)c1ccc2c(c1)OCCO2 (configuration not stated)	1	-5
O=C(Cc1ccc(C(F)(F)F)cc1)Nc1ncccc1O	1	2
CCCOC(=NCCOC)NC(=O)c1ccc(Cl)c(Cl)c1	-4	-3
[O-][n+]1onc2cc3c(cc21)OCCO3	0	-1
Cc1cccc(Nc2ncnc3c2CN(CC(=O)Nc2ccccc2-n2cccc2)CC3)c1	1	-1
COc1ccnc(NCCc2cn3c(n2)CCCC3)n1	8	1
CNC(=O)[C@@H]1[C@@H](OC)C(=O)N(C)C12CCN(C(=O)/C=C/c1ccccc1)CC2	-7	4
CC(/C=C1N=C(/C=C/c2cccc(Cl)c2Cl)OC\1=O)=C\c1ccccc1	-1	-5
CN1CCN([C@@H]2CCN(c3ncccc3C(=O)O)C[C@H]2O)CC1	-1	-1
CC(C)N(CCSc1ccc(NC(=O)C2CC2)nn1)C(C)C	1	1
COc1cc(=O)n(-c2ccccc2C)nc1C(=O)Nc1ccccc1C(N)=O	-4	-4
Oc1ccc(OCc2ccccc2)cc1	-2	-8
Cc1ccc(C)c(OCC(=O)N(C)Cc2nc(-c3ccccn3)no2)c1C	-1	-4
CC1(C)CCC[C@@]2(C)C1CC[C@@](C)(O)[C@@H]2CC[C@@](C)(O)C1CO1 (some centres not stated)	2	3
CNc1ncccc1C(=O)NC1CC(=O)N(Cc2cccc(F)c2)C1 (configuration not stated)	1	-1
CCn1c(SCCC#N)nnc1-c1ccc(Cl)cc1	12	14
FC(F)(F)c1cnc(NN=Cc2cccnc2)c(Cl)c1	-5	-9
CN1CC[C@H](NC(=O)C2CC2)C[C@H](O)C1	4	11
O=C(CSc1nc(=O)n2ccccc2n1)Nc1ccc(C(F)(F)F)cc1	1	1

Given with two lines to a compound: entries from further up.
Values in the order: NPYLR7 agonist | NPYLR7 agonist max-min
CCCc1ccc(C(=O)CSc2nnc(-c3ccc[nH]3)o2)cc1
→ 3 | 18
C=CCn1c(=O)c2c(nc3n(-c4ccc(C(F)(F)F)cc4)c(C)cn23)n(C)c1=O
→ -1 | 1

Next part.
SMILES	NPYLR7 agonist	NPYLR7 agonist max-min
Cc1nc(C(C)NC2CCN(c3ccccn3)CC2)cs1 (configuration not stated)	8	4
Cc1c(C(=O)N(C)Cc2ccccc2Cl)sc2nc3n(c(=O)c12)CCCCC3	-3	-7
Brc1cc2c(cc1CSc1nnnn1-c1ccccc1)OCO2	1	4
N#Cc1cccc(S(=O)(=O)N(Cc2nnc(-c3ccc(Cl)cc3)o2)C2CC2)c1	2	3
O=C(C1CCCCC1)N(CCCN1CCOCC1)c1nc2c(F)cc(F)cc2s1	1	-7
CC(C(=O)NC(C)(C)C)N(c1ccccc1)S(C)(=O)=O (configuration not stated)	-1	-2
COc1cccc(-c2cccc(-c3ccc(NC(=O)c4ccc(C(F)(F)F)cc4F)cc3)n2)c1	0	4
CC(C)(O)C#Cc1ccc(CN2CC[C@@H](N3CCN(c4ccccn4)CC3)[C@H](O)C2)cc1	18	6
O=S(=O)(Nc1ccc(N2CCCC2)c(F)c1)c1cc(F)cc(F)c1	-5	-6
N#Cc1cc(NC(=O)c2cccs2)c(=O)n2c1sc1ccccc12	0	-1
Cc1[nH]cnc1CN(Cc1cccnc1)C1CCN(C)CC1	0	1
COCCNC(=O)[C@@]1(OCc2cccc(F)c2)CC(OCc2ccc(F)cc2)[C@@H]2OC(C)(C)O[C@@H]2C1 (some centres not stated)	18	5
CCCCN(CC(=O)N(Cc1ccccc1)Cc1ccc(C)s1)S(=O)(=O)c1ccc([N+](=O)[O-])cc1	10	12
CCOC(=O)C1=C(C)N=c2s/c(=C/c3cccc(Br)c3)c(=O)n2C1c1ccc(OC)cc1 (configuration not stated)	3	-1
N#Cc1ccccc1COC1C[C@](OCc2cccc(Cl)c2)(C(=O)NCCN2CCOCC2)C[C@@H](O)[C@H]1O (some centres not stated)	0	0
COC(=O)c1ccc(Cn2cnc3c(cnn3C3CCS(=O)(=O)C3)c2=O)cc1 (configuration not stated)	11	3

The list is partial, so the mix of outcomes need not match the whole.
